# NPYLR7 ag: mosquito NPYLR7 agonism. HEK293T NPYLR7/Galpha15, GCaMP6s calcium fluorescence. activation, % at 10 µM. hit rate 0.15% among 270,000. AID 1259423; in the data active means activation above about 40%;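 further: 0% = vehicle and 100% = reference agonist at the receptor; some compounds past the cut are filed as inactive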
# NPYLR7 ag max-min: also measured in NPYLR7 ag; calls as there; activation, %; measured here: Max-Min RFU normalised activation; some inactives read as strong as hits;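 span of the calcium signal over five minutes; 0% = vehicle and 100% = native peptide agonist; compound fluorescence can raise it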
# Numbers without * were called inactive; & = joins results of further samples.
SMILES,NPYLR7 ag,NPYLR7 ag max-min
COc1cccc(C2CCCCN2Cc2nc(-c3cc4c(cc3Cl)OCO4)oc2C)c1 (stereo not drawn),5,8
CCN1CCCC1CNC(=O)CCC1CCN(Cc2c(C)n(C)c3ccccc23)CC1 (stereo not drawn),4,5
CCOCCCN(CC(=O)N1CCc2sccc2C1c1ccccc1)S(=O)(=O)c1ccc(F)cc1 (stereo not drawn),-3,-3
Cc1ccc(CC(=O)N2CCCC2C2CCNCC2)cc1 (stereo not drawn),7,5
CCOC(=O)CC1C(=O)NCCN1C(=O)CCC(=O)c1ccc(CCCC2CC2)cc1 (stereo not drawn),-6,-13
CCC1CCCCN1Cc1nc2c(c(=O)n(C)c(=O)n2C)n1CC(N)=O (stereo not drawn),0,2
O=C(NC(c1ccccc1)c1ccc2ccccc2n1)C1CCN(CC2CC2)CC1 (stereo not drawn),16,11
CCCCC(=O)Nc1nc(-c2ccc(Cl)cc2)cs1,5,0
CCC(c1ccccc1)N(C)CC(O)COC (stereo not drawn),-5,-10
CC(=NNC(=S)NC(C)C)c1ccc2c(c1)OCCO2,2,1
COc1cc(C=C2N=C(C(C)(C)C)OC2=O)ccc1OC(F)F,5,1
O=C(O)c1cccn(Cc2ccccc2F)c1=O,-2,-5
CSc1ccc(C(=O)CCC(=O)Nc2ccc(NC(C)=O)cc2)cc1,-7,-12
CCCCc1nn2c(=O)c(NC(=O)c3ccc(C)cc3)cnc2s1,-1,-1
COCc1ccc(CNC(=O)c2cc(Cl)cn2C)cc1,3,0
CCCN(Cc1cccnc1)C(=O)c1ccc(Cl)cc1OC,7,5
O=C(NCCc1cccc(Cl)c1Cl)Nc1nncs1,-13,-14
O=S(=O)(/C=C/c1ccc(Cl)cc1)NCc1ccco1,6,4
NS(=O)(=O)c1ccc(S(=O)(=O)N2CCOCC2)cc1,4,5
CC1=C(C(=O)Nc2ccccc2)C(c2cccc(O)c2)NC(=S)N1 (stereo not drawn),-10,-9
COc1ccccc1CNC(=O)CN1CCC(O)(c2ccc(F)cc2)CC1,4,3
O=C(Nc1cnccc1Cl)c1csc(Br)c1,9,2
CCN(CC)c1ccc2cc(-c3nnc(Nc4ccccc4OC)s3)c(=O)oc2c1,-4,-8
c1cc2c(cc1CNCc1ccc3c(c1)OCO3)OCO2,0,0

# Some of the entries so far, with two lines to a compound:
# The line under a structure holds: NPYLR7 ag, NPYLR7 ag max-min
CCCCC(=O)Nc1nc(-c2ccc(Cl)cc2)cs1
→ 5, 0
CCC(c1ccccc1)N(C)CC(O)COC (stereo not drawn)
→ -5, -10
CC(=NNC(=S)NC(C)C)c1ccc2c(c1)OCCO2
→ 2, 1
COc1cc(C=C2N=C(C(C)(C)C)OC2=O)ccc1OC(F)F
→ 5, 1
O=C(O)c1cccn(Cc2ccccc2F)c1=O
→ -2, -5
CSc1ccc(C(=O)CCC(=O)Nc2ccc(NC(C)=O)cc2)cc1
→ -7, -12
CCCCc1nn2c(=O)c(NC(=O)c3ccc(C)cc3)cnc2s1
→ -1, -1
COCc1ccc(CNC(=O)c2cc(Cl)cn2C)cc1
→ 3, 0
CCCN(Cc1cccnc1)C(=O)c1ccc(Cl)cc1OC
→ 7, 5
O=C(NCCc1cccc(Cl)c1Cl)Nc1nncs1
→ -13, -14
O=S(=O)(/C=C/c1ccc(Cl)cc1)NCc1ccco1
→ 6, 4
NS(=O)(=O)c1ccc(S(=O)(=O)N2CCOCC2)cc1
→ 4, 5
CC1=C(C(=O)Nc2ccccc2)C(c2cccc(O)c2)NC(=S)N1 (stereo not drawn)
→ -10, -9
COc1ccccc1CNC(=O)CN1CCC(O)(c2ccc(F)cc2)CC1
→ 4, 3

# Remaining list, next part.
SMILES,NPYLR7 ag,NPYLR7 ag max-min
Cn1cccc1CN(Cc1cccs1)C(=O)c1nc2ccccc2s1,21,20
COCCN(Cc1csc(COc2ccc(OC)cc2)n1)C(C)=O,52,36
Cc1ccc2sc(N(Cc3cccnc3)C(=O)c3ccc(C#N)cc3)nc2c1C,-3,2
CCNC(=O)N(CCC(C)C)Cc1c(-c2ccccc2)noc1N1CCc2ccccc2C1,-2,6
CC(c1nc2ccccc2s1)N(C)C(=O)CNc1cc(Cl)ccc1N1CCOCC1 (stereo not drawn),2,9
CCOC(=O)CCNC(=O)NCc1nnnn1-c1ccccc1,21,18
COCCN(CC(=O)N(CCc1c[nH]c2ccccc12)Cc1ccc(OC)c(OC)c1)C(=O)c1ccc(Cl)c(Cl)c1,-1,9
CCCC(=O)N1CCC(C(=O)N(C)CC2(O)CCCC2)CC1,-1,-1
CCN(CC1CCCN(CCc2cccc(F)c2)C1)C(=O)CSC (stereo not drawn),3,0
CC1(c2nc(C3CCCCCC3)no2)CCNC1 (stereo not drawn),3,2
CCC(CC)C(=O)N(C)c1c(C)nc2c(OCc3ccc(C(=O)N(C)C)cc3)cccn12,5,-9
CN1CCc2nc3sc(C(=O)NCc4ccc(F)cc4)c(N)c3cc2C1,10,1
CN(Cc1nc2ccccc2c(=O)[nH]1)C(=O)Cc1csc(-c2ccccn2)n1,1,-2
CN(Cc1ccoc1)C(=O)c1cccc(NCc2cccs2)c1,-4,-6
Cc1cccc(NC(=S)N(C)C2CCS(=O)(=O)C2)c1C (stereo not drawn),8,9
O=C(Nc1cc(Cl)c(Oc2cccc3cccnc23)c(Cl)c1)c1cc(Cl)cc(Br)c1O,8,10
CCNC(=O)NC(=O)CN1CCc2cc(Br)cc(F)c21,1,13
CC1CCCN(C(=O)c2ccc(OC3CCN(S(C)(=O)=O)CC3)c(Cl)c2)C1 (stereo not drawn),6,1
CCc1nc(SCC(=O)N2CCCN(Cc3ccncc3)CC2)n[nH]1,4,-3
CC1CCC2(CC1)NC(=O)N(NC(=O)CN(C)Cc1ccccc1)C2=O (stereo not drawn),13,5
COc1ccc(N2CCN(c3cc(=O)n(-c4cccc(C(F)(F)F)c4)c(=O)[nH]3)CC2)cc1,16,9
COc1ccccc1N=C1S/C(=C\c2ccc(O)cc2)C(=O)N1c1ccccc1OC,-7,-10
CCn1c(C)cc(C(=O)CN2C(=O)NC3(CCC(C)CC3)C2=O)c1C (stereo not drawn),0,5
CN1CCN(Cc2cc(F)ccc2-n2cccn2)CC1CCO (stereo not drawn),4,2
CCOc1cccc2cc(-c3csc(NC(=O)COc4ccccc4)n3)oc12,4,4
Cc1noc(C)c1CC(=O)NC1CCOc2ccccc21 (stereo not drawn),3,1
CN(Cc1ccc(Cl)cc1)C(=O)CSc1nc(N)nc(N)n1,3,1
Cc1ncc(CN2CCOC3(COCCN(C(=O)C(C)C)C3)C2)n1C (stereo not drawn),2,1
Cc1ccnc(CC(C)N(C)C(=O)CSc2nnc(C)s2)c1 (stereo not drawn),2,2
COCCCN(CC(=O)N1CCc2sccc2C1c1ccc(OC)cc1)C(=O)C(C)(C)CCl (stereo not drawn),-6,-13
COc1cccc(CCNC(=O)C2CC23CCN(C(=O)/C=C/c2cccs2)CC3)c1 (stereo not drawn),27,22
CC1(C)C2OCCCC2C1OC(=O)c1nccc2ccccc12 (stereo not drawn),-2,8
Nc1nc2nccc(-c3ccc(Cl)cc3)n2n1,1,-3
N#Cc1c2c(c(-c3ccco3)[nH]c1=O)CCCC2,2,1
CC1CC(C)CN(C(=O)CSc2nnnn2-c2ccc(Cl)cc2)C1 (stereo not drawn),1,18
CC(C)c1cc(C(=O)N/N=C\c2c[nH]c3ccccc23)n[nH]1,4,5
COc1ccc(CCOC(=O)C2CCCCN2S(=O)(=O)c2ccc(OC)c(OC)c2)cc1OC (stereo not drawn),-11,-17
COc1cc(O)ccc1-c1nccn1-c1ccc(OC(F)F)cc1,6,4
O=C(O)C1Cc2c([nH]c3ccccc23)C(c2ccc(Cl)cc2Cl)N1 (stereo not drawn),4,2
Cc1ccc(C(C)(C)CC(=O)N2CCN(CC(=O)N3CCCC3)CC2)cc1,9,7
COc1cccc(NC(=O)N2CCN(c3nc(-c4cccs4)nc4cc(Cl)ccc34)CC2)c1,26,26
CC/C=C\CC[C@H]1N[C@](CO)(c2ccccc2)[C@H]2CN(C)C[C@@H]12,1,0
CN(CC(=O)Nc1ccc(Cl)cc1F)C1CCS(=O)(=O)C1 (stereo not drawn),-6,-8
Cc1c(Br)c(C(F)(F)F)nn1CC(=O)Nc1sc2c(c1C#N)CCCC2,-3,-7
CC(C)C(=O)N1CCN(S(=O)(=O)c2ccc(CCC(=O)O)cc2)CC1,6,3
Cn1cc(C(=O)N2CCN(C(=O)CC3CCCCC3)CC2)c2nn(-c3ccccc3)c(=O)c-2c1,2,1
Cc1ccc(S(=O)(=O)NCCC(=O)NCc2ccccc2)c(C)c1N(C)S(C)(=O)=O,-13,-15
O=C(Nc1ccc(-c2c(-c3ccccc3)[nH]n(-c3cccc(F)c3)c2=O)cc1)c1ccccc1F,9,8
N#CC(=Cc1cc(Br)ccc1F)c1nc2ccccc2[nH]1,0,1
O=C(Cn1cnc(-c2noc(-c3ccncc3)n2)c1)NCc1cccc(Cl)c1,-7,-8
Oc1ccc2ccccc2c1/C=N\Nc1nc(N2CCCCC2)nc(N2CCCCC2)n1,-2,-5
COc1cc(CSc2nnnn2-c2ccccc2)ccc1OC(F)F,-2,14
O=S1(=O)CC2N=C(Nc3ccc(Cl)c(Cl)c3)SC2C1 (stereo not drawn),-2,-3
NS(=O)(=O)c1ccc(Cn2ccnc2-c2ccc3c(c2)OCCO3)cc1,7,4
O=C(CSc1ccc(-c2ccc(-n3cccn3)cc2)nn1)NC1CCCC1,-6,-10
COCCOc1nc(-c2cccc(C(F)(F)F)c2)n(-c2ccc(NC(=O)c3cc(OC)cc(OC)c3)cc2)n1,22,23
CC1=NN(c2ccc(Cl)c(Cl)c2)C(=O)/C1=C/c1ccc(OCc2ccccc2)cc1,10,16
COc1cccc(-c2nc3c(NC4CCC(O)CC4)nccc3[nH]2)c1F (stereo not drawn),-5,-13
Cc1ccc(C(C2Sc3nc(C)nn3C2=O)N2CCC3(CC2)OCCO3)cc1 (stereo not drawn),4,4
Cc1ccc(C(=O)NC2CCN(c3cccc(C(F)(F)F)n3)CC2)o1,2,1
# Remaining list, next part
SMILES,NPYLR7 ag,NPYLR7 ag max-min
COc1cc(C(=O)N2CCC(n3c(=O)oc4ccc(C(C)(C)C)cc43)CC2)cc(Cl)n1,2,0
O=S(=O)(c1ccc2c(c1)CCN2Cc1ccc(C(F)(F)F)cc1)N1CCOCC1,5,2
CCOC(=O)C1=C(C)N=c2sc(=Cc3ccc(C)o3)c(=O)n2C1c1ccc(OC(C)=O)cc1 (stereo not drawn),1,15
COCCNc1oc(-c2ccccc2C)nc1S(=O)(=O)c1ccccc1,6,4
O=S(=O)(c1ccc(F)cc1)N1CCN(C2c3ccccc3CCc3ccccc32)CC1,5,2
COc1ccc(OC)c(S(=O)(=O)NC2CCSc3ccccc32)c1 (stereo not drawn),36,42
O=C(COCC(=O)NN=Cc1ccco1)NN=Cc1ccco1,1,2
CCOC(=O)C1CCN(c2ncc(F)c(N3CCOCC3)n2)CC1,-8,-19
C/C=C\COC1CCCN(C(=O)c2ccc(OC)cc2)C1 (stereo not drawn),-3,-2
N#Cc1cccnc1N1CCC(CCc2ccc(O)cc2)CC1,0,-1
COc1cccc(C(C)CC(=O)N2CCC(CSC)C2)c1 (stereo not drawn),1,-1
C=CCN(Cc1cccn1Cc1ccc(F)cc1)C(C)C(C)C (stereo not drawn),-4,2

# Some of the entries so far, as labelled records:
Cc1ccc(C(=O)NC2CCN(c3cccc(C(F)(F)F)n3)CC2)o1
  NPYLR7 ag: 2
  NPYLR7 ag max-min: 1
O=C(Cn1cnc(-c2noc(-c3ccncc3)n2)c1)NCc1cccc(Cl)c1
  NPYLR7 ag: -7
  NPYLR7 ag max-min: -8

# The results go on.
SMILES,NPYLR7 ag,NPYLR7 ag max-min
CCN1CCN(C(=O)c2cc(-c3ccc(F)cc3)n(-c3cccc(C)c3)c2C)CC1,-3,8
COc1ccc(S(=O)(=O)NCCc2ccc(F)cc2)cc1N1CCN(S(=O)(=O)c2ccc(F)cc2F)CC1,26,12
Cn1ccn2ncc(C(=O)NCC3(c4cccc(F)c4)CCOCC3)c12,-4,-2
NC1CCN(c2ccccc2OC(F)F)C1 (stereo not drawn),6,1
C=CCn1c(-c2ccc(Br)cc2)nc(=S)c2c1CCCC2,4,-1
O=C1N(Cc2ccccc2)C(=O)C2(CCN(Cc3nccs3)CC2)N1CCc1ccccc1,13,-2
CCCCNC(=O)C1(C)CCN1C(=O)c1ccc(F)c(C)c1 (stereo not drawn),4,2
CN1CCN(c2cc(-c3ccccc3)nc(SCc3ccc(C(=O)NC4CC4)cc3)n2)CC1,13,8
Cn1cc(S(=O)(=O)N2CCOCC2)cc1C(=O)N(CC(N)=O)c1ccccc1,-1,7
CCOC(=O)c1c(N)sc2c1CCC(CC)C2 (stereo not drawn),2,1
Cc1ccccc1CC1(CO)CCCN(C(=O)c2ccc3c(c2)OCO3)C1 (stereo not drawn),4&-1,0&0
O=C(c1ccc(-c2cccs2)s1)N1CCc2ncn3nc(Cc4ccccc4)nc3c2C1,3,-1
CCOC(=O)C1=C(C)NC2=C(C(=O)CCC2)C1c1ccc(OCC)c(OC)c1 (stereo not drawn),0,-9
COCCNC(=O)CCCCC(=O)NCCOC,3,3
O=C1CCc2cc(C(=O)NC3CCN(C(=O)c4ccccc4)CC3)ccc2N1,0,0
CSc1ccc(NC(=O)N2CCCC(CCC(=O)NCc3ccccc3F)C2)cc1 (stereo not drawn),5,-9
COc1ccc(C(=O)CSc2nnc3n2CCN3c2ccccc2)cc1,-4,-4
COc1cccc(C(=O)CSc2nnc(NC(=O)C3C[C@H]3c3ccccc3)s2)c1 (stereo partly drawn),-2,8
Nc1nc(N)nc(Cn2c(-c3nonc3N)nc3ccccc32)n1,7,7
CCc1ccc(C(=O)NC(C)c2ccc(S(C)(=O)=O)cc2)cc1 (stereo not drawn),-1,-1
CCOC(=O)CNC(=O)N1CCN(c2nc(C(C)C)nc3sc4c(c23)CCCC4)CC1,-9,-8
CC(=O)Nc1cncc(-c2cccc(CO)c2)n1,2,0
O=C(c1cc(=O)c2cccc(F)c2[nH]1)N1CCC(N2CCCC2=O)CC1,5,2

# Compound activity as filed in PubChem.

# Not all compounds are listed (hit frequency here may not be typical).
